fixLJ activator: B. multivorans fixK reporter activation; AID 1918990; z-score (no concentration beside the values); B. multivorans fixK-promoter GFP reporter, 18 h; stronger effect = higher value; actives 0.3% (n = 29,000);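 active = replicate mean overnight rise in green fluorescent reporter signal, 3 or more SD over negative controls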;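 also: score is relative to vehicle wells of the plate; 300 nL library stock went into each well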
* = called active by the depositor. Only part of the results is shown (hit frequency here may not be typical).

SMILES	fixLJ activator
CC(C)c1ccccc1NC(=O)Cn1cnc2c1c(=O)n(C)c(=O)n2C	0.41
Cc1cc(Cl)ccc1OCCN1CCN(C(=O)CCc2c(C)nn(C)c2C)CC1	0.2
Cc1oc2ccc(O)c(CN3CCOCC3)c2c1C(=O)Nc1ccccc1	-0.61
C#CCOc1cc(C(=O)N2CCC[C@]3(CCCC3O)C2)ccc1OC (stereo partly drawn)	0.99
Cc1ccc(CCNC(=O)c2cn(C)c3ccc(S(=O)(=O)N4CCCCC4)cc3c2=O)cc1	0.1
Cc1ccccc1CN1C(=O)c2ccccc2S(=O)c2ccc(C(=O)N3CCOCC3)cc21 (stereo not drawn)	-0.9
COc1ccc(-c2cc(C(F)(F)F)nc(SCC(=O)NCc3ccc(F)cc3)n2)cc1	-1.7
CCOC(=O)c1[nH]c2c(c1Cc1ccccc1)C(=O)CC(c1ccc(OC)cc1)C2 (stereo not drawn)	0.8
O=C(C1CCC1)N1CCC(C(=O)N2CCC(O)[C@@]3(CCCNC3=O)C2)CC1 (stereo partly drawn)	-0.67
COc1ccc(-c2nc(S(=O)(=O)c3ccc(C)cc3)c(N3CCCCC3)o2)cc1	-0.6
CCn1c(CN2CCCC2)nnc1C1CCN(c2ncccc2C#N)CC1	-0.36
CCn1cc(C(=O)N(C)Cc2ccccc2)c(=O)c2cc(S(=O)(=O)N3CCCCCC3)ccc21	-2.08
O=c1c2cnn(-c3ccc(F)cc3)c2ncn1Cc1ccc(F)cc1	-1.26
O=C1CCC(C(=O)N2CCCN(Cc3ccncc3Cl)CC2)CN1 (stereo not drawn)	-0.53
CCOc1cc(C(=O)Nc2cc3c(cc2N2CCOCC2)n(C)c(=O)n3C)cc(OCC)c1OCC	0.01
Cc1ccc(-c2nc3ncccc3o2)cc1NC(=O)c1ccccc1Br	-1.52
CSc1ccc(Cn2nnc(C(=O)Nc3ccc(C)cc3Cl)c2N)cc1	0.11
COc1cccc(NC(=O)Cn2c(=O)n(-c3ccc(Cl)cc3)c(=O)c3sc4ccccc4c32)c1	0.96
COC(=O)N[C@H](C(=O)N[C@@H](Cc1ccccc1)[C@@H](O)CN(Cc1ccc(-c2ccccn2)cc1)NC(=O)[C@@H](NC(=O)OC)C(C)(C)C)C(C)(C)C	-0.45
Cc1cccc(NC(=O)CCc2c(C)nc3nc(CNC(=O)c4cccc(F)c4)nn3c2C)c1	-1.04
NC1CCC(NC(=O)C2OCC(=O)NC2c2ccccc2)CC1 (stereo not drawn)	-1.46
N#Cc1ccccc1Cn1c(=O)n(-c2ccccc2)c(=O)c2c3c(sc21)CCC3	-0.42
CCCNS(=O)(=O)c1ccc(C(=O)N2CCOc3ccc(Cl)cc3C2)cc1	-0.34
CCOc1ccc(CCNC(=O)CSc2cc(=O)n(C)c3ccccc23)cc1OCC	-2.08
Cc1c(CNCCc2ccc(S(N)(=O)=O)cc2)c(C(=O)O)c(C)n1Cc1ccc(Cl)cc1	0.15
Cc1ccc(NC(=O)[C@H](Cc2ccccc2)N2Cc3ccccc3C2=O)cc1F	-0.64
CCc1ccc(NS(=O)(=O)c2ccc3[nH]cc(C(=O)NC4CCCC4)c(=O)c3c2)cc1	1.26
O=C(C(O)c1ccccc1)N1CCc2nc(-c3ccccc3)[nH]c2C1 (stereo not drawn)	-0.4
Cc1ccc(Cn2c(C(C)NC(=O)c3ccccc3)nc3ccccc32)cc1 (stereo not drawn)	1.37
COCCn1cnnc1CN(C)Cc1nc2c(C)c(C)ccc2[nH]1	-1.24
Cc1ccc2c(=O)cc(C(=O)Nc3ccc(S(=O)(=O)N(C)Cc4ccccc4)cc3)oc2c1C	-1.6
Cn1c(-c2ccc(S(=O)(=O)N3CCCC3)cc2)csc1=Nc1ccc(Cl)c(Cl)c1	-0.2
O=C(CC1CCC1)N1CCC(c2nnc(Cn3ccnc3)n2C2CC2)CC1	-3
Cc1ccc(CCNC(=O)c2cn(C)c3ccc(S(=O)(=O)N4CCC(C)CC4)cc3c2=O)cc1	-1.43
CCN(CC)S(=O)(=O)c1ccc2c(c1)c(=O)c(C(=O)N1CCN(c3cccc(Cl)c3)CC1)cn2C	-0.45
Cc1cc(CC2CN(C(=O)Cc3ccc(F)cc3F)CC2O)n[nH]1 (stereo not drawn)	-1.93

Entries shown so far that contain an aryl methoxy group:
SMILES	fixLJ activator
C#CCOc1cc(C(=O)N2CCC[C@]3(CCCC3O)C2)ccc1OC (stereo partly drawn)	0.99
COc1ccc(-c2cc(C(F)(F)F)nc(SCC(=O)NCc3ccc(F)cc3)n2)cc1	-1.7
CCOC(=O)c1[nH]c2c(c1Cc1ccccc1)C(=O)CC(c1ccc(OC)cc1)C2 (stereo not drawn)	0.8
COc1ccc(-c2nc(S(=O)(=O)c3ccc(C)cc3)c(N3CCCCC3)o2)cc1	-0.6
COc1cccc(NC(=O)Cn2c(=O)n(-c3ccc(Cl)cc3)c(=O)c3sc4ccccc4c32)c1	0.96

(list continues)
SMILES	fixLJ activator
Cc1c(C(c2ccc(Cl)cc2Cl)c2c(O)c3ccccc3oc2=O)c(=O)n(-c2ccccc2)n1C (stereo not drawn)	0.88
Cc1ccc(C(=O)CC2(O)C(=O)N(Cc3ccccc3)c3ccccc32)c(C)c1 (stereo not drawn)	0.36
Cc1ccccc1C(=O)N(Cc1ccc(N(C)C)cc1)Cc1ccco1	-0.84
Cc1ccc(Sc2c(C)nn(C(=O)COc3ccccc3)c2C)cc1	-0.15
CC(C)COC(=O)/C(C#N)=C\c1ccc(-c2ccccc2Cl)o1	-0.27
Cc1cc(C)nc(CCNc2cc(C)nc3c(C)c(C)nn23)n1	-0.25
Cc1ccc(NC(=O)CCS(=O)(=O)c2cc(Br)cc3c2N(C(=O)C2CC2)CC3)cc1	0.66
COc1ccccc1Nc1c2c(nc3ccc(NC(=O)c4ccc(N(C)C)cc4)cc13)CCCC2	-0.33
Cc1ccc(-c2cc(C(=O)N3CCCC(OCc4cccnc4)C3)n[nH]2)s1 (stereo not drawn)	0.36
CCOC(=O)N1CCc2c(sc3c2c(=O)n(-c2ccc(Cl)cc2)c(=O)n3CC(=O)c2ccc(F)cc2)C1	-1.42
Cc1cccc(Cn2c(=O)n(CCC(=O)NCc3ccc4c(c3)OCO4)c(=O)c3sccc32)c1	1.11
Cn1c(-c2cccc(Br)c2)cnc1NCc1cccc(F)c1	-4.38
Cc1cc2c(cc1NC(=O)NCc1cn3c(n1)SCC3)OCCO2	-2.22
CCCCOc1ccc(C(=O)N(Cc2ccc(N(C)C)cc2)Cc2ccco2)cc1	0.11
COc1ccc(OC)c(-c2cc(C(=O)Nc3cnn(Cc4ccc(Cl)cc4Cl)c3)no2)c1	-0.25
O=C(NCCN1CCCCC1)c1ccc(Cn2c(SCc3cccc(F)c3)nc3cccnc32)cc1	-1.93
COCCn1c(CN(C)CC2CCCC2)nnc1C1CC(N)C1 (stereo not drawn)	0.89
CN1CCCC1CCNc1ccc(-c2nc(-c3ccccc3F)no2)cn1 (stereo not drawn)	-1.04
O=C(COc1cccc(F)c1)Nc1ccccc1OCC1CCCO1 (stereo not drawn)	1.58
Cc1ccc(-c2nn(-c3ccc(F)cc3)c3c2cnc2cc(F)c(F)cc23)cc1	0.05
COc1cccc(N=C2SC(C(=O)Nc3cccc(Cl)c3)CC(=O)N2C)c1 (stereo not drawn)	-0.34
CCN(CC1CCOCC1)C(=O)C1CC(=O)N(Cc2ccccn2)C1 (stereo not drawn)	-1.28
CCCCN(CC)C(=O)c1ccc2c(c1)NC(=O)c1ccccc1S2	-1.05
O=C(O)CNc1ncc(CN2CCC(c3ccccc3)CC2)cn1	1.02

Reprinted from the part before: 4 compounds, followed by the next part.
SMILES	fixLJ activator
COc1cccc(N=C2SC(C(=O)Nc3cccc(Cl)c3)CC(=O)N2C)c1 (stereo not drawn)	-0.34
CCN(CC1CCOCC1)C(=O)C1CC(=O)N(Cc2ccccn2)C1 (stereo not drawn)	-1.28
CCCCN(CC)C(=O)c1ccc2c(c1)NC(=O)c1ccccc1S2	-1.05
O=C(O)CNc1ncc(CN2CCC(c3ccccc3)CC2)cn1	1.02
Cn1cc(C(=O)NCc2ccc(F)cc2)c(=O)c2cc(S(=O)(=O)N3CCCCC3)ccc21	-0.73
CCCOC1CCCN(S(=O)(=O)c2ccc(NC(C)=O)c3ccccc23)C1 (stereo not drawn)	-1.69
COc1ccccc1NC(=O)CN1C(=O)C(c2ccc(F)cc2)=NC12CCCCC2	-3.36
COc1ccc(OC)c(NC2=C(c3ccccc3)C(=O)c3ccccc32)c1	-0.05
CCOc1ccc(CC(=O)Nc2c(C(=O)c3ccc(C)cc3)oc3ccccc23)cc1OCC	-2.51
CN1CCc2nc3sc(C(=O)Nc4ccccc4C(F)(F)F)c(N)c3cc2C1	0.74
O=C(Cn1c(SCc2ccccc2F)nc2ccncc21)Nc1ccccc1C(F)(F)F	-0.89
CCCSc1nc(-c2ccc(OC)cc2)cc(-c2ccccc2OC)c1C#N	0.52
Cc1ccccc1CNC(=O)CC1COc2ccc(C(=O)N(C)C)cc2N1C (stereo not drawn)	0.3
CCCC(=O)N(c1ccc2oc3c(c2c1)CCCC3)S(=O)(=O)c1ccc(CC)cc1	-3.35
CCOc1ccc(NCc2nc3ccccc3n2CCOc2ccc(C)cc2)cc1	0.88
Fc1ccc(Nc2c(-c3ccccn3)nc3ccc(Cl)cn23)cc1	0.13
CS(=O)(=O)N(CC(=O)NCCSCc1ccccc1)c1cc(C(F)(F)F)ccc1Cl	-0.83
Cc1c(C(=O)OCCOc2ccccc2)[nH]c2c1C(=O)CC(c1ccccc1)C2 (stereo not drawn)	0.75
CCOC(=O)c1c(NC(=O)c2cc(-c3cccc(OC)c3)on2)sc2c1CCCC2	-0.58
Cc1ccc(Cl)cc1NC(=O)N1CCC2(CC1)Oc1ccccc1C(=O)N2Cc1ccccc1F	-0.98
CCc1ccccc1NC(=O)c1cn(C)c(=O)c2ccccc12	-1.2
O=C(Cn1ncc2c3ccccc3n(Cc3ccc(Cl)cc3)c2c1=O)NCCC1=CCCCC1	6.41*
CCn1cc(C(=O)NCCN(CC(C)C)CC(C)C)c(=O)c2cc(S(=O)(=O)N(C)C3CCCCC3)ccc21	-1.86
CCCN(C)C(=O)c1coc(COc2ccc3ccc(OC)cc3c2)n1	0.21
Cc1cccc(NC(=O)CSc2ncc(-c3ccccc3)[nH]2)c1C	-2.72
CCCC1(NC(=O)c2cc(CN3CCC(O)CC3)on2)CC1	-1.73
COCCN(C)c1ccc(C(=O)N2CCC(Oc3cccnc3)CC2)cn1	-0.92
COc1cccc(-c2nc(CS(=O)(=O)CC(=O)Nc3cc(F)ccc3F)c(C)o2)c1	-1.58
CN1CCN(C(=O)c2cc(F)c(F)cc2Cl)CC12CCNC(=O)CC2 (stereo not drawn)	1.23
COc1cc(C(c2c(O)c3ccccc3oc2=O)c2c(C)n(C)n(-c3ccccc3)c2=O)ccc1OCC(=O)O (stereo not drawn)	0.37
CCc1ccc(NC(=O)CC2C(=O)N(c3ccc(C)cc3)C(=O)N2C2CCCC2)cc1 (stereo not drawn)	-0.62
CCC(=O)N1CCc2[nH]cnc2C12CCN(C(=O)c1ccc[nH]1)CC2	-1.43
COc1ccc(C(NC(=O)CN2CCOC2=O)C2CC(O)C2)cn1 (stereo not drawn)	0.05
O=S(=O)(c1ccccc1)n1nc(-c2ccco2)nc1NCc1ccccc1	-1.87
O=C(NCc1ccccc1)c1cc2sccc2n1Cc1ccc(F)cc1	1.18
CN(Cc1ccccc1)C(=O)C1CCN(CC(=O)Nc2ccn(C)n2)CC1	0.08
O=C(c1cc2cc(F)ccc2[nH]1)N1CC2OC(=O)N(CCc3ccccn3)C2C1 (stereo not drawn)	-0.39
CC(=O)N1CC2CCC(C1)N(C(=O)c1cc(-c3ccccc3)n[nH]1)C2 (stereo not drawn)	-1.45
Cc1cc(C)n(CCCC(=O)N2Cc3nc(C)[nH]c(=O)c3C2)n1	2.02
COc1ccc(C(NC(=O)c2cccc(OC)c2O)C2CC(O)C2)cn1 (stereo not drawn)	2.01

3 entries out of the list, sorted by number of heavy atoms, falling:
SMILES	fixLJ activator
Cn1c(-c2ccc(S(=O)(=O)N3CCCC3)cc2)csc1=Nc1ccc(Cl)c(Cl)c1	-0.2
O=C(C1CCC1)N1CCC(C(=O)N2CCC(O)[C@@]3(CCCNC3=O)C2)CC1 (stereo partly drawn)	-0.67
Cn1c(-c2cccc(Br)c2)cnc1NCc1cccc(F)c1	-4.38

Remaining list, next part
SMILES	fixLJ activator
CCCCOc1ccc(C(=O)N(Cc2ccc(C(C)C)cc2)C2CCS(=O)(=O)C2)cc1 (stereo not drawn)	-1.02
CCOc1cccc(C(c2c(C)n(C)n(-c3ccccc3)c2=O)c2c(C)n(C)n(-c3ccccc3)c2=O)c1OC	-0.88
Cn1c(=O)cc(SCC(=O)N2CCN(c3ccccc3F)CC2)c2ccccc21	-1.69
COc1ccc(C(=O)Nc2nc3c(s2)Cc2c(Br)ccc(OC)c2-3)cc1OC	1
CCCCNC(=O)CC1Nc2cc(C)c(C)cc2NC1=O (stereo not drawn)	-0.27
Cc1cccc(NC(=O)c2oc3ccccc3c2NC(=O)c2cc(=O)c3cc(Cl)ccc3o2)c1	-3.69
COc1ccc(-c2noc(CSc3nnc(-c4ccncc4)n3-c3ccc(C)cc3)n2)cc1	-1.64
CC(=O)NC1CN(c2cccc(C#N)n2)CC1c1ccc(C)o1 (stereo not drawn)	-1.11
CCCN1C(=O)c2[nH]nc(-c3ccc(F)cc3)c2C1c1ccccn1 (stereo not drawn)	-0.03
CCc1ccc(NC(=O)C2CCCN(S(=O)(=O)c3c(C)noc3/C=C/N(C)C)C2)cc1 (stereo not drawn)	-0.06
CN(C)c1nc(-c2cccnc2)nc2c1CCN(C(=O)CCC(N)=O)C2	0.91
COc1ccccc1CNC(=O)CCc1c(C)c2cc3c(C)c(C)oc3cc2oc1=O	3.47*
Cc1nn(CCO)cc1CN1CCC2OCc3cnnn3C2C1 (stereo not drawn)	-0.99
CCOc1ccc(NC(=O)c2oc3ccccc3c2NC(=O)Cc2ccc(F)cc2)cc1	-0.98
O=C(Cc1ccc(F)cc1)NC1CCN(C(=O)N2CCCC2)CC1	0.95
CC(C)c1ccc(NS(=O)(=O)c2ccc3[nH]cc(C(=O)NC4CCCC4)c(=O)c3c2)cc1	-0.23

Bioassay records (PubChem BioAssay)
